KCNQ2 inh: KCNQ2 potassium channel inhibitors, primary screen, cell-based, CHO-K1, FluxOR thallium flux, B-score (AID 2156); Potassium voltage-gated channel subfamily KQT member 2 (Rattus norvegicus), O88943; 20 min; hits give low values; only compounds with negative scores are shown here; some inactives read as strong as hits; B-score at 10 µM; 310,000 compounds, 1.1% hits;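 active = fluorescence ratio B-score at most minus 3 library SDs, with starting brightness B-score within 2 library SDs, cut at about -5.5 in these data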
Target sequence (O88943 whole entry, looked up): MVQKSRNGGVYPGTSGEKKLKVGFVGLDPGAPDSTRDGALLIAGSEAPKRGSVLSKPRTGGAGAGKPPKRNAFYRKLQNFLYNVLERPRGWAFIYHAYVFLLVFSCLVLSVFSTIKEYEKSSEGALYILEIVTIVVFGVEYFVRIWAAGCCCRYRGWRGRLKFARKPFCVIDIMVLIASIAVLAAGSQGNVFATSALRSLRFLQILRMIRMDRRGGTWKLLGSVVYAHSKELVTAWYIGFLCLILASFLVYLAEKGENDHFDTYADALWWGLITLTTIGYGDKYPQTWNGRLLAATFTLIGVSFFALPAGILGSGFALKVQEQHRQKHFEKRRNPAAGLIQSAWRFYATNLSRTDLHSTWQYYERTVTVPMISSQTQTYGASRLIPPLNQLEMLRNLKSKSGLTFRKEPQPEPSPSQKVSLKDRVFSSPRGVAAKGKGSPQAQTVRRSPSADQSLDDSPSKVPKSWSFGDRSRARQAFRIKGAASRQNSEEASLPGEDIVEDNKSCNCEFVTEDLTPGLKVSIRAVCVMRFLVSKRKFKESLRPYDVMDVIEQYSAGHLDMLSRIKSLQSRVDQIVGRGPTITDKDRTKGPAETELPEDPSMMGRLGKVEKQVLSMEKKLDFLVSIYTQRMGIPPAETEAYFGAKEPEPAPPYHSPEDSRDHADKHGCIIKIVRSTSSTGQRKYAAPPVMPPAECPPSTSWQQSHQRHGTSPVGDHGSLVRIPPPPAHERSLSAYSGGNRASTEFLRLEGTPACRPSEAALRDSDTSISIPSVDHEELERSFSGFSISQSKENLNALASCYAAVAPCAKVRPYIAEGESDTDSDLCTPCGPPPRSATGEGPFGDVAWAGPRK
KCNQ2 inh baseline: recorded beside KCNQ2 inh, whose call it bears; B-score; measured here: initial fluorescence intensity artifact check;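 brightness before thallium and not channel activity; 0 = typical well and far values either way flag optical interference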
Starred values were filed as active, the others as inactive; i = inactive.

SMILES	KCNQ2 inh	KCNQ2 inh baseline
Cn1c(CNC(=O)OC(C)(C)C)nnc1SCc1c(Cl)cccc1Cl	i	0.47
Cc1ccc2c(c1)cc(CN(CCc1ccccc1)C(=O)N1CCOCC1)c1nnnn12	i	0.21
CNC(=O)C(=O)NCCCN1CCOCC1	i	-0.47
Cc1ccccc1C(=O)Nc1ccc(Br)cn1	i	0.02
CC(NC(=S)Nc1ccc(OC(F)F)c(Cl)c1)C(C)(C)C (stereo not drawn)	i	-1.9
CCCn1c(SCC(=O)c2ccc3c(c2)OCCO3)n[nH]c1=O	i	0.66
C/C(=N\NC(=O)c1cccc(S(=O)(=O)N2CCOCC2)c1)c1ccco1	i	-0.47
CCCN(CCC)Cc1c(C(=O)N/N=C/c2ccoc2)nnn1-c1nonc1N	i	-0.14
C=CCc1ccccc1OCC(=O)O	i	-0.36
Cc1ccc(S(=O)(=O)N2CCC(=O)N(CCOCc3ccc(Cl)cc3)CC2)cc1	i	-0.25
O=C(N/N=C/c1ccc(Br)s1)Nc1ccccc1	i	2.4
CN(C)S(=O)(=O)Oc1ccc(Cl)cc1C(=O)Nc1cccc(C(F)(F)F)c1	i	1.1
COc1ccc(Nc2nc(NCc3ccco3)nc(N/N=C/c3ccccc3Cl)n2)cc1	i	2.2
Cn1c(C(=O)NC2CCCCC2)cc2sccc21	i	-1.2
COCCCNc1nc2ccccc2nc1NS(=O)(=O)c1ccc(C)cc1C	i	0.82
COc1ccc(CNC(=O)c2ccc(CS(=O)Cc3ccc(Cl)cc3)o2)cc1 (stereo not drawn)	i	-0.07
S=C(Nc1cccnc1)Nc1cccc2cnccc12	i	2.6
O=C(CN(C(=O)Cn1nnc(-c2cccs2)n1)c1ccc2c(c1)OCCO2)NC1CCCCC1	i	-0.78
COc1cccc(/C=C2\SC(=S)N(C(Cc3ccccc3)C(=O)O)C2=O)c1 (stereo not drawn)	i	1.3
COc1ccccc1NC(=O)COC(=O)c1cnc(C)cn1	i	1.4
CC(C)C(Sc1nc(-c2ccccc2)cc(-c2ccccc2)c1C#N)C(=O)O (stereo not drawn)	i	-0.97
COC(=O)c1ccc(NC(=O)CN2CCN(CC#N)CC2)cc1	i	-0.11
COc1ccc(OC)c(C2NC(=O)NC(C)=C2C(=O)Nc2ccc(C)cc2)c1 (stereo not drawn)	i	-0.99
O=C(Nc1ccc(C(=O)NC2CCCCC2)cc1)c1cccnc1	i	1.1
Cc1cccc(CN2CCCC(C(=O)Nc3ccccc3Oc3cccnc3)C2)c1 (stereo not drawn)	i	-0.54
O=C(CSc1ccc(Cl)cc1)Nn1cnnc1	i	0.74
Cc1ccc2nc(SCc3ccc([N+](=O)[O-])cc3)[nH]c2c1	i	-2.4
CCN(CC(=O)Nc1ccc(NC(C)=O)cc1)C(=O)c1ccc(=O)[nH]c1	i	0.89
CCCCOC(=O)CCc1c(C)[nH]c(=S)[nH]c1=O	i	0.33
Cc1cc(C)cc(C(=O)Nc2ccncc2)c1	i	0.47
CC(C)(C)OC(=O)N1CCOCCOCCNCCOCCOCC1	i	1.5
CCOc1ccc(C2=Nc3ccccc3C(c3ccc(N4CCOCC4)cc3)=NN2)cc1	i	0.49
CSc1c(C#N)sc(=S)n1-c1ccc(C)cc1	i	0.76
Cc1ccc(-c2csc(=S)n2CC(=O)OCC(=O)NCc2ccco2)cc1	i	0.12
Cc1ccc(CCNC(=O)CNS(=O)(=O)c2ccc3nc(C)sc3c2)cc1	i	3.6
Cc1onc(-c2ccccc2Cl)c1C(=O)N1CCN(c2ccc(F)cc2)CC1	i	-1.3
CCN(CC)CCCN1C(=O)C(=O)/C(=C(/O)c2ccc(OC)cc2)C1c1ccco1 (stereo not drawn)	i	3.7
COC(=O)C1CCCN1S(=O)(=O)c1ccc([N+](=O)[O-])cc1 (stereo not drawn)	i	-0.5
Cc1cccc(NC(=O)CSc2nnc(CSc3nc(C)cc(C)n3)n2Cc2ccco2)c1	i	-1.6
CCn1cc(S(=O)(=O)c2ccc(Cl)cc2)c(=O)c2cc(OC)ccc21	i	-0.07
COc1ccc(CCNc2ncnc3[nH]ncc23)cc1OC	i	1.2
O=C(COC(=O)Cc1cccc(C(F)(F)F)c1)Nc1ccc2[nH]c(=O)[nH]c2c1	i	0.5
COc1ccccc1C1CCN(Cc2ccccc2Cl)CC1	i	-0.15
N#Cc1c(-c2ccc(F)cc2)c2c([nH]c1=O)-c1ccccc1OC2	i	1.8
Cc1cccc(Nc2ccccc2)c1	i	-0.05
CN(CC(=O)NCCc1ccc(F)cc1)Cc1ccccc1	i	0.47
COc1ccc(-c2csc(N3CCN(Cc4ccc5c(c4)OCO5)CC3)n2)cc1	i	-0.49
Cc1ccc(S(=O)(=O)N2CCC(C(=O)NCCCOC(C)C)CC2)cc1	i	-0.75
Nc1ccc(Oc2ncccn2)c(Cl)c1	i	-0.05
COc1ccc(OC)c(CNc2ncc(-c3ccc(F)cc3)n2C)c1	i	-0.44
CCOC(=O)C1CCCN(C(=O)c2sc3nc(-c4ccc(OC)cc4)cn3c2C)C1 (stereo not drawn)	i	0.77
Cc1nn2cc(-c3ccc(N)cc3)nc2s1	i	0.89
COc1ccccc1N1CCN(C(=O)c2ccc3[nH]c4c(c3c2)CCCC4)CC1	i	-1.2
Cc1ccc(-c2nc(SCC(=O)N(C)c3c(N)n(Cc4ccccc4)c(=O)[nH]c3=O)n[nH]2)cc1	i	0.52
CCCNC(=O)OC[C@H]1O[C@H](CCO/N=C/C[C@@H]2C=C[C@H](OC(C)=O)[C@@H](COC(C)=O)O2)C=C[C@@H]1Oc1ccc(OC)cc1	i	-0.8
CC(C)C(c1nnnn1C1CCCC1)N1CCN(c2ccccc2F)CC1 (stereo not drawn)	i	0.86
Cc1nc2cc(C(F)(F)F)ccc2n1CCNc1nc(-c2ccc(F)cc2)cs1	i	-0.02
CCC(=O)NC(Nc1cc(C)cc(C)n1)(C(F)(F)F)C(F)(F)F	i	0.08
COc1ccccc1NS(=O)(=O)c1cccc(NC(=O)Nc2cccc(Cl)c2)c1	i	7.1
Cc1ccc(S(=O)(=O)CC(=O)Nc2nnc(C)s2)cc1	i	-1.9

Among those listed so far, seven contain a furan ring, fused or not:
SMILES	KCNQ2 inh	KCNQ2 inh baseline
C/C(=N\NC(=O)c1cccc(S(=O)(=O)N2CCOCC2)c1)c1ccco1	i	-0.47
CCCN(CCC)Cc1c(C(=O)N/N=C/c2ccoc2)nnn1-c1nonc1N	i	-0.14
COc1ccc(Nc2nc(NCc3ccco3)nc(N/N=C/c3ccccc3Cl)n2)cc1	i	2.2
COc1ccc(CNC(=O)c2ccc(CS(=O)Cc3ccc(Cl)cc3)o2)cc1 (stereo not drawn)	i	-0.07
Cc1ccc(-c2csc(=S)n2CC(=O)OCC(=O)NCc2ccco2)cc1	i	0.12
CCN(CC)CCCN1C(=O)C(=O)/C(=C(/O)c2ccc(OC)cc2)C1c1ccco1 (stereo not drawn)	i	3.7
Cc1cccc(NC(=O)CSc2nnc(CSc3nc(C)cc(C)n3)n2Cc2ccco2)c1	i	-1.6

Carrying on.
SMILES	KCNQ2 inh	KCNQ2 inh baseline
CC1=[N+](C)c2ccc3ccccc3c2C1(C)C	i	-2
CCCC(=O)N1c2ccccc2[C@@H](N(C(C)=O)c2ccccc2)C[C@H]1C	i	0.62
CC(=O)N=c1sc2nc3ccccc3nc2n1N(C(C)=O)C(C)=O	i	1.9
O=C(COC(=O)c1ccc([N+](=O)[O-])cc1Cl)Nc1cccnc1Cl	i	-0.95
O=C(NN=C1CCN(Cc2ccccc2)CC1)C(O)c1ccccc1 (stereo not drawn)	i	1.4
CCCCNS(=O)(=O)c1cccc(S(=O)(=O)N2CCCC2)c1	i	1.3
COc1ccccc1-c1nnn(C/C(N)=N/O)n1	i	0.01
Cc1c(C)n(C(=O)CN2CCN(c3ccccn3)CC2)c2ccccc12	i	0.5
Cc1[nH]c(C(=O)N/N=C/c2ccc(C(=O)O)cc2)c(C)c1C(=O)N/N=C/c1ccc(C(=O)O)cc1	i	-0.82
O=C1Nc2ccccc2CCC1Sc1nnc(-c2ccc(Cl)cc2)s1 (stereo not drawn)	i	0.94
O=C(CCSc1nc2ccccc2o1)Nc1ccccc1	i	-1.5
COc1ccc(S(=O)(=O)N2CCCC(C(=O)NCc3ccncc3)C2)cc1Cl (stereo not drawn)	i	-0.82
Cc1cc(C(=O)NC2CCCCC2C)c2ccccc2n1 (stereo not drawn)	i	-0.01
Cc1ccc(-c2cn(C[C@H]3CC[C@@H]([C@@H]4CC[C@H](Cn5cc(-c6ccc(C)cc6)nn5)O4)O3)nn2)cc1	i	-0.7
CCOC(=O)c1c(C)[nH]c(C)c1S(=O)(=O)NC(C)Cc1ccco1 (stereo not drawn)	i	-0.57
O=S(=O)(NCc1ccccc1)c1ccc(Cl)cc1	i	0.05
C=CCOc1cccc(/C=C2\C(=O)N(Cc3ccc(C)cc3)C(C)=C2C(=O)OC)c1	i	-0.21
Cc1cc(C)nc(SCC(=O)c2ccc(O)c(O)c2)n1	i	1.1
COc1ccccc1CNc1ncnc2c1cnn2-c1ccccc1	i	0.87
CCOc1ccccc1NC(=O)CCNS(=O)(=O)c1cccc2nsnc12	i	-0.88
COc1cc(NC(=O)C2=C(N3CCOCC3)/C(=C\c3ccc(Br)cc3)CC2)cc(OC)c1OC	i	1.7
CCOC(=O)CSc1nn(-c2ccccc2)c(=S)s1	i	-0.04
CC(C)(C)OC(=O)CNC(=O)c1[nH]cnc1C(=O)NCCCCCNC(=O)OC(C)(C)C	i	-1.2
CC(C)Oc1ccc(CNC(=S)N/N=C/c2ccc([N+](=O)[O-])cc2)cc1	i	0.93
COCCNC(=O)CSc1ncnc2sc(-c3ccccc3)cc12	i	1.1
CCOc1ccc(C(CC(=O)O)NC(=O)c2cccs2)cc1 (stereo not drawn)	i	-1.7
Cc1nc2ncnn2c(C)c1CCC(=O)NCCCN1CCN(c2cccc(Cl)c2)CC1	i	3.5
Oc1ccc[n+](CC(O)c2ccccc2)c1 (stereo not drawn)	i	-0.01
Cn1c(SCC(=O)Nc2cccc(NC(=O)c3cccs3)c2)nnc1-c1ccncc1	i	0.5
CNC[C@H](Cc1ccccc1)NC[C@@H](Cc1cccc2ccccc12)NCCc1ccc(C)cc1	-8.4*	0.75*
O=C(C1=C(O)C(=O)N(CCCn2ccnc2)C1c1ccccc1)c1ccco1 (stereo not drawn)	i	0.01
Nc1nc(C(=O)N2CCOCC2)nn1C(=O)c1ccc(Cl)cc1	i	2
CCOc1ccc2[nH]c(=O)c(CN(CCCO)C(C)=O)cc2c1	i	2.2
N#CC(c1ccccc1)(c1ncc(C(F)(F)F)cc1Cl)N1CCOCC1 (stereo not drawn)	-7*	1.5*
Cc1c(Cl)c(C(=O)NNC(=S)Nc2ccccc2)nn1C	i	1.3
COC(=O)c1sc(-c2ccc(Cl)cc2)cc1N	i	2
O=C(NC1CCN(C(=O)NCc2ccccc2)CC1)c1ccco1	i	0.65
COc1ccccc1CNCC(=O)NCc1ccc(C)cc1	i	0.01
CC(=O)Nc1ccc(S(=O)(=O)NCC2CCC(C(=O)NCCc3ccccc3)CC2)cc1 (stereo not drawn)	i	-0.1
C=C(C)c1cccc(C(C)(C)NC(=O)N2CCCCC2CC)c1 (stereo not drawn)	i	1.4
O=C(NC(=S)N1CCN(c2ccccc2)CC1)c1ccc(S(=O)(=O)N2CCOCC2)cc1	i	-0.71
O=C(CCSc1ccccc1)N1CCN(c2ccccc2)CC1	i	0.44
CCCn1cnc2scc(-c3ccc(C)cc3)c2c1=O	i	-2.1
COc1cccc2cc(C(=O)N3C(C)CCCC3C)c(=O)oc12 (stereo not drawn)	i	1.4
Cc1cc2c(cc1C)N(C(=O)CSC1=NCCS1)C(C)(C)c1ssc(=S)c1-2	i	0.24
COc1ccc(NC(=O)CSCc2ccc(C#N)cc2)c(OC)c1	i	-0.59
CCC1CCCCN1c1nc(-c2ccncc2)nc2ccccc12 (stereo not drawn)	i	-2.3
Cn1c(=O)n(C)c2cc(S(=O)(=O)NCCO)ccc21	i	0.25
Cc1ccc(NC(=O)c2ccc(S(=O)(=O)NCC3CCCO3)cc2)cc1C (stereo not drawn)	i	0.87
COC(=O)N/N=C/c1ccccc1OCCOc1ccc(OC)cc1	i	1.5
O=C(NCc1ccco1)C1CCN(S(=O)(=O)c2cccc3cccnc23)CC1	i	-0.21
CCNS(=O)(=O)c1cc(OC)c(Cl)cc1OC	i	0.78
COc1ccc2[nH]c(=O)c(CN(CCc3cccc(C)c3)C(C)=O)cc2c1	i	0.49
COc1ccc(NC(=O)[C@@H]2[C@@H]3C(=O)N(C4CCCCC4)C(=O)[C@@H]3C3c4ccccc4C=CN32)cc1 (stereo partly drawn)	i	0.97
COC(=O)C1=C(CSc2nc3c(cc2C#N)CN(C)CC3)OC(N)=C(C#N)C1c1ccc(F)cc1 (stereo not drawn)	i	0.92
CSc1ccccc1NC(=O)Nc1cccc(Cl)c1Cl	i	-1.2
CCOCC(=O)Nc1nc2ccc(OCC)cc2s1	i	-0.11
N#CC1(Cc2ccccc2)c2ccccc2C=CN1C(=O)c1ccccc1 (stereo not drawn)	i	0.6
Cc1ccc2[nH]c(O)c(N=NC(N)=S)c2c1	i	1.1
O=C(CNC(=O)c1cc(=O)[nH]c2ccccc12)Nc1ccc(F)c(F)c1	i	-0.44

5 of the compounds above, with the structure last.
KCNQ2 inh	KCNQ2 inh baseline	compound
i	0.25	Cn1c(=O)n(C)c2cc(S(=O)(=O)NCCO)ccc21
i	0.87	Cc1ccc(NC(=O)c2ccc(S(=O)(=O)NCC3CCCO3)cc2)cc1C (stereo not drawn)
i	1.5	COC(=O)N/N=C/c1ccccc1OCCOc1ccc(OC)cc1
i	-0.21	O=C(NCc1ccco1)C1CCN(S(=O)(=O)c2cccc3cccnc23)CC1
i	0.78	CCNS(=O)(=O)c1cc(OC)c(Cl)cc1OC

In another format: entries from further up
Values run as follows: KCNQ2 inh, KCNQ2 inh baseline
> CCNS(=O)(=O)c1cc(OC)c(Cl)cc1OC
    i, 0.78
> N#CC1(Cc2ccccc2)c2ccccc2C=CN1C(=O)c1ccccc1 (stereo not drawn)
    i, 0.6
> COC(=O)C1=C(CSc2nc3c(cc2C#N)CN(C)CC3)OC(N)=C(C#N)C1c1ccc(F)cc1 (stereo not drawn)
    i, 0.92

This is a subset; count on the stated rates, not on these rows.
